BasE inh – inhibitors of Acinetobacter baumannii siderophore enzyme BasE; 84,000 tested, 0.1% active; purified BasE, fluorescence polarization binding displacement; AID 485350; inhibition, % (test concentration not listed);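 active = both replicates above 25% with normal brightness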;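 also: 0% = negative plate control signal and 100% = positive plate control signal; stock transfer was 100 nL into about 30 µL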
LANA-nucl inh – inhibitors of KSHV LANA binding to nucleosomes | z-score (concentration not given with the values) | 51,000 tested, 0.3% active | FITC-LANA1-23 / chicken nucleosome fluorescence polarization; hits give low values;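 active = both repeat wells score below -2 in polarization z-score versus plate sample wells, excluding overly bright wells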;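 also: 100 nL library stock added to about 30 µL; numbers are from one replicate; some results filed as inactive read as strong as hits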
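Assay system: FITC-LANA peptide and chicken nucleosomes; input: 240 nM purified chicken nucleosomes (480 nM peptide binding sites), final; also added: 50 nM FITC-LANA1-23 probe; medium: TEN-BT buffer, pH 7.5; doses: pin-transferred compound, 100 nL; times: 10–45 min, room temperature; technique: fluorescence polarization; replication: duplicates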
Numbers without * were called inactive; nt = not tested or not shown.

SMILES	BasE inh	LANA-nucl inh
Cc1ccc(CCNC(=O)C2CCCN(S(=O)(=O)c3cccs3)C2)cc1 (configuration not stated)	-2.2	-0.47
CC(C)=CC(=O)Nc1nnc(Cc2ccccc2)s1	1.8	-0.31
O=C(O)CCNC(=O)NC12CC3CC(CC(C3)C1)C2	-0.6	0.62
O=C1CNC(c2ccc(Cl)cc2Cl)N1O (configuration not stated)	0.1	2.1
O=C(NCCCN1CCC(Cc2ccccc2)CC1)c1noc2ncnc(N3CCCC3)c12	-3.6	0.3
Cc1noc(C)c1CN1c2cccc3cccc(c23)S1(=O)=O	0.9	nt
Cc1noc(C)c1/C=C/C(=O)O	-1.5	nt
CN(C)c1ccc(/C=C/C(=O)/C=C/c2ccc3c(c2)OCO3)cc1	9.4	nt
O=C(NCCC1=CCCCC1)Nc1c[nH]c2ccccc12	-3.4	1.8
Cc1cc(-c2ccc(C)c(S(=O)(=O)NCc3cccnc3)c2)on1	-5.2	nt
Cc1cc(C)c(NC(=O)C(C)OC(=O)c2ccccc2O)c(C)c1 (configuration not stated)	1.0	nt
CC1(C)Cc2cccc(C(=O)N3CCC(c4c[nH]c5ccccc45)CC3)c2O1	0.7	nt

Entries of single compounds, looked up by structure. Order of values: BasE inh, LANA-nucl inh
CN(C)c1ccc(/C=C/C(=O)/C=C/c2ccc3c(c2)OCO3)cc1 reads 9.4, nt
Cc1ccc(CCNC(=O)C2CCCN(S(=O)(=O)c3cccs3)C2)cc1 (configuration not stated) reads -2.2, -0.47

The results go on.
SMILES	BasE inh	LANA-nucl inh
COC(=O)Cc1c(C)c2ccc(OCC(=O)c3ccc(N4CCCC4)cc3)cc2oc1=O	3.3	0.15
C=CCn1c(COc2ccc(CC)cc2)nnc1SC(C)C	-0.8	nt
CCOc1cc(CN2CCN(C)CC2)ccc1OCC(=O)Nc1cccc(C(F)(F)F)c1	-1.8	nt
Cc1ccc(C)n1-c1cc(S(=O)(=O)N2CCOCC2)ccc1N1CCCC1	-2.1	nt
COc1ccc2c(c1)CCC(=O)C2	0.3	nt
COc1ccccc1NC(=O)CCc1c(C)nc2nc(CNC(=O)OC(C)(C)C)nn2c1C	-1.1	0.17
CC[N+](C)(C)Cc1ccco1	-0.5	1.2
Cc1oc(C(C)(C)C)cc1-c1cc(NC(=O)C2CCC2)n(-c2ccc(I)cc2)n1	0.0	0.7
CC1CCN(C(=O)CN(c2ccccc2)S(C)(=O)=O)CC1	3.9	-0.83
CC1CCN(C(=O)c2nn(C)c3c2CCc2sccc2-3)CC1	0.5	0.9
CCN(C(=O)Cc1ccccc1OC)c1nnc(-c2ccncc2)s1	1.8	0.038
CCn1cc(C(=O)N2CCN(c3ccccc3)CC2)c(=O)c2cc(S(=O)(=O)N3CCCCC3)ccc21	1.0	0.27

Looked up by compound from the entries so far:
SMILES	BasE inh	LANA-nucl inh
CCn1cc(C(=O)N2CCN(c3ccccc3)CC2)c(=O)c2cc(S(=O)(=O)N3CCCCC3)ccc21	1.0	0.27
COc1ccc2c(c1)CCC(=O)C2	0.3	nt
Cc1noc(C)c1CN1c2cccc3cccc(c23)S1(=O)=O	0.9	nt
CC1CCN(C(=O)CN(c2ccccc2)S(C)(=O)=O)CC1	3.9	-0.83
Cc1noc(C)c1/C=C/C(=O)O	-1.5	nt
O=C1CNC(c2ccc(Cl)cc2Cl)N1O (configuration not stated)	0.1	2.1

(listing goes on)
SMILES	BasE inh	LANA-nucl inh
CC(=O)N/N=C(\C)c1ccc2c(c1)OCCO2	0.5	nt
Cc1ccc(Nc2c(-c3ccco3)nc3ccccn23)cc1	2.2	0.2
N#CC(C#N)=NNc1ccc(F)cc1C(F)(F)F	0.2	-0.9
S=C(c1ccc(N2CCCC2)c(Br)c1)N1CCOCC1	-1.4	0.001
CC1CCCCN1c1ncccc1C(=O)N1CCCC1 (configuration not stated)	-1.1	-0.57
CCOCCn1ccc2c(OCC(N)=O)cccc2c1=O	0.4	-0.16
CCCSc1nnc(-c2cccc(S(=O)(=O)N(C)C)c2)n1-c1cccc(OC)c1	0.5	nt
Cc1[nH][nH]c(=O)c1C=Nc1ccc(O)c(C(=O)O)c1	1.9	-0.79
CCOc1ccc(S(=O)(=O)N/N=C(\C)c2ccc3c(c2)OCO3)cc1	3.8	nt
O=C1CC(c2ccco2)CC(O)=C1C=NCCN1CCN(C(=O)Nc2ccc(Cl)cc2)CC1 (configuration not stated)	-0.3	0.21
Cc1cccc(N2CC(C(=O)OCn3nnc4ccccc4c3=O)CC2=O)c1C (configuration not stated)	-3.5	nt
N#Cc1c(NC(=O)c2ccc3ncsc3c2)sc2c1CCC2	4.4	0.2
Cn1cccc1CC(=O)N1N=CCC1(O)C(F)(F)F (configuration not stated)	0.8	nt
COc1ccc(NC(=O)c2cc(NC(=O)C3CCCCC3C(=O)O)ccc2N2CCOCC2)cc1 (configuration not stated)	1.3	-0.57
COc1ccc(CCNC(=O)c2nc3ccccc3c(=O)[nH]2)cc1OC	3.7	nt
CCC(Sc1nc2sc(C(=O)OC)c(C)c2c(=O)n1N)C(=O)NCC1CCCO1 (configuration not stated)	1.8	-0.58
Cc1cnc(NC(=O)CCCSc2ccccc2)s1	1.7	nt
Nc1c(C(=O)c2cccs2)sc2nc3c(cc12)CCCC3	2.4	-1.1
Fc1ccc(-c2cnc(CN3CCCCC3c3nc4ccccc4s3)o2)cc1 (configuration not stated)	-0.1	nt
CCCC1=C(C(=O)OC)C(c2ccc(C(=O)OC)cc2)NC(=O)N1C (configuration not stated)	-2.5	nt
O=C(NNc1nc(-c2ccccc2)cs1)c1cccs1	1.3	-0.0075
O=C(NN1CC(=O)N(Cc2ccco2)C1=O)C(c1ccccc1)c1ccccc1	0.7	0.49
COc1ccc(C2CC(=O)Nc3ncnn32)cc1 (configuration not stated)	0.6	-0.2
S=C(Nc1ccccc1Cl)N1CCCCC1	0.9	-0.18
CCC1CCCCN1C(=O)c1cc(C)no1 (configuration not stated)	-0.6	-1.1
CSc1nn(-c2ccccc2)cc1C(=O)Nc1ccc(Cl)cc1	-1.2	nt
CC1(C)C2CC=C(COCC(O)CNCC3COc4ccccc4O3)C1C2 (configuration not stated)	1.1	nt
CC(C)(C)c1ccc(S(=O)(=O)N2CCC(O)(c3ccc(Cl)cc3)CC2)cc1	0.3	nt
COCCn1c(SC)nc2c(c1=O)SCC2	-1.0	0.6
Cn1c(SCC(=O)N2c3ccccc3Sc3ccccc32)nnc1-c1ccco1	1.1	0.68
CCOC(=O)N1CCN(C(=O)c2ccc(N(Cc3ccccc3)S(C)(=O)=O)cc2)CC1	-1.3	0.37
CC(C)(C)NC(=S)N/N=C1/CCCc2occc21	1.6	0.3
CC1CN=C(N(C)C(=O)Nc2cccc(Cl)c2)S1 (configuration not stated)	4.5	-0.11
O=C(O)CCCn1cnc2ccccc2c1=O	1.2	-0.56
CC1(C)N=C2C(=[N+]1[O-])CCC/C2=N/O	2.1	-1.5
Cc1nc2c(C)cccn2c1/C(O)=C1\C(=O)C(=O)N(CCN(C)C)C1c1cccnc1 (configuration not stated)	2.9	0.21
O=C(Nc1ccccc1OC(F)F)c1ccccc1	2.0	-1.1
CCCc1cnc(N2CCN(CC(=O)Nc3ccc4c(c3)OCCO4)CC2)nc1	-2.6	0.23
Cc1cc(C)nc(-n2ncc(Cl)c(Cl)c2=O)n1	2.0	nt
FC(F)(F)c1nnc(-c2ccccc2)nc1Oc1ccccc1	nt	0.41
O=C(CSc1nc2ccccc2c(=O)n1Cc1ccco1)Nc1ccccc1	-0.2	-0.33
CCOC(=O)NCc1ccc2c(c1)OCO2	3.4	nt
COc1ccc(-c2[nH]nc3oc(=O)cc(C)c23)cc1	-0.8	-0.77
O=C(COC(=O)c1cccc(S(=O)(=O)NCc2ccco2)c1)Nc1ccccc1	-2.7	nt
O=C(COC(=O)c1ccccc1)NCc1ccc2c(c1)OCO2	0.9	nt
Nc1cc(N)nc(SCC(=O)N2c3ccccc3Sc3ccccc32)n1	-1.0	nt
C/C(=C\C(=O)c1ccc(Cl)cc1)N1CCOCC1	2.4	-0.7
On1ccc2c(Br)cncc21	1.6	-0.28
Cc1ccc(C)c(-n2c(SCc3cn4ccccc4n3)nnc2-c2cc3sccc3n2C)c1	3.8	0.33
Cc1ccc(C)n1CC(N)=O	0.2	nt
O=C(NCC12CC3CC(CC(C3)C1)C2)c1cc(-c2ccccc2F)no1	2.1	-0.9
CCCNC(=O)CSc1nnc2n(-c3ccccc3)c(=O)c3ccccc3n12	1.4	nt
Cc1ccc(-c2nn(-c3ccccc3)cc2C(=O)N2CCOCC2)cc1	0.6	nt
CCCCN1C2CCCC1CC(NC(=O)C1CCCCC1)C2 (configuration not stated)	0.3	0.14
Cc1cc(C)n(-c2nc(NC(C)C)nc(NC(C)(C)C)n2)n1	0.0	0.49
COc1ccccc1OCC(O)CN (configuration not stated)	1.4	-0.5
Cc1ccc2c(CN3C(=O)c4ccccc4C3=O)cc(=O)oc2c1	0.8	nt
COc1ccc2oc(=N)c(C(N)=O)cc2c1	4.6	nt
Cc1nc(N)c(Cc2ccc(Cl)cc2Cl)c(N)n1	nt	1.3
O[C@@H]1C2C3CC4C5C3C1C(c1ccccc1)(C42)[C@H]5O (some centres not stated)	-3.1	1.4
Following part
SMILES	BasE inh	LANA-nucl inh
C=CCN=C1SCC(=O)N1S(=O)(=O)c1ccc(C)cc1	1.1	0.11
CSCc1ccc(C(=O)N2CCN(C(=O)c3ccccc3)CC2)cc1	-4.3	nt
COc1ccc(OC(C)C(=O)Nc2cccc(C)n2)cc1 (configuration not stated)	-3.8	-0.59
Clc1cccc(/C=N/n2c(-c3cccs3)csc2=NCCN2CCOCC2)c1	1.3	nt
CCOC(=O)N1CCN(C(=O)/C=C/c2c(C)nn(-c3ccc(F)cc3)c2Cl)CC1	-0.7	nt
OC(C#CCN1CCOCC1)c1cccs1 (configuration not stated)	1.7	nt
Cc1noc(C)c1Cc1c(C(=O)O)noc1C	-0.5	-0.11
Cn1ncc(C(N)=O)c1N	3.4	-0.49
CC1(C)C(=O)Nc2ccccc2N1C(=O)COC(=O)c1ccc(S(=O)(=O)N2CCCC2)cc1	1.9	nt
COC(=O)C12CC3(C)CC(C)(CC(C)(C3)C1)C2	0.4	nt
Cn1nnc2c([nH]c3ccccc32)c1=O	2.2	nt
CCOC(=O)c1cnn(C(=O)COc2ccc(C(C)(C)C)cc2C(C)(C)C)c1N	-1.0	nt
CCc1ccccc1N(CC(=O)NC)S(C)(=O)=O	-0.9	-1.4
CCN(Cc1nc2ccccc2c(=O)[nH]1)Cc1nc2cc(OC)c(OC)cc2c(=O)[nH]1	-2.3	nt
COc1ccc(CN2C(=O)c3[nH]nc(-c4ccccc4O)c3C2c2ccc(O)cc2)cc1 (configuration not stated)	-1.2	-0.22
CC(C)(C)c1ccc2c(c1)CN(Cc1ccccc1)CO2	-0.1	0.36
Cc1c(Sc2nc3ccccc3[nH]2)c(=O)[nH]c2cc3c(cc12)OCO3	15	0.66
CC(=O)Nc1ccc(C2=N/C(=C/c3cn(C(C)=O)c4ccccc34)C(=O)O2)cc1	-6.9	nt
COc1ccc(-c2[nH]ncc2C(=O)NCc2ccccc2)cc1	0.7	-0.92
N#CC(C#N)=C/C=C(\Sc1nnnn1-c1ccccc1)c1ccccc1	0.1	0.61
Cc1noc(C)c1C(=O)OC(C)C(=O)Nc1ccc(S(=O)(=O)NC(C)C)cc1 (configuration not stated)	4.3	nt
O=C(Nc1ccccc1)c1ccc(N2C(=O)C3C4C=CC(C4)C3C2=O)cc1 (configuration not stated)	-1.4	1.1
COC(=O)c1cc(/C=C/C(=O)N(C(=O)NC2CCCCC2)C2CCCCC2)cn1C	-1.2	nt
O=C(CN1C(=O)c2ccccc2C1=O)Nc1ccc2c(c1)OCO2	-0.4	-0.82
Cc1ccccc1NC(=O)Nc1sc(=S)n(C)c1C	4.5	0.49
O=C1CSC(=O)N1CC(O)COc1ccc(OCC(O)CN2C(=O)CSC2=O)cc1 (configuration not stated)	1.4	-0.48
COc1ccc(C(=O)OCC(=O)c2cc(OC)ccc2OC)cc1	-2.8	nt
Cc1cc(OCCCC(=O)NC2=NCCS2)ccc1Cl	2.2	nt
Cc1ccccc1N(C)C(=O)Cn1ncc2c1-c1ccccc1OC2	-1.4	-1.2
CC1(C)CN(C(=S)Nc2cccc(Cl)c2)C1=O	3.6	nt
O=C(c1ccccc1)C1CCN(C(=O)c2ccco2)CC1	2.9	nt
Cc1cc(/C=C(/C#N)c2ccc(F)cc2)c(C)n1Cc1ccccc1	0.5	-0.81
O=C(Nc1ccc(Cl)cn1)c1cccc(S(=O)(=O)N2CCCCCC2)c1	-0.1	nt
O=C(c1ccc(-n2nc(C(F)(F)F)c3c2-c2ccoc2CC3)cc1)N1CCc2ccccc21	2.0	-1.3
Nc1ccc(Sc2nnnn2-c2ccccc2)c(Cl)c1	-0.3	-0.71
COc1cc(Cl)c(NS(=O)(=O)c2cc(-c3onc(C)c3C)ccc2OC)c(OC)c1	0.4	nt
O=C(NC1CCCC1)C1C2C=CC(C2)C1C(=O)N1CCOCC1 (configuration not stated)	0.0	1.5
O=C(Nc1ccc2c(c1)OCCO2)[C@@H](c1ccccc1)N1Cc2ccccc2C1=O	2.4	-0.22
N#Cc1ccc(N2CCCCC2)cc1	5.4	-0.61

5 of the compounds above, with values under each structure:
Values in the order: BasE inh | LANA-nucl inh
O=C(c1ccc(-n2nc(C(F)(F)F)c3c2-c2ccoc2CC3)cc1)N1CCc2ccccc21
    2.0 | -1.3
COc1ccc(C(=O)OCC(=O)c2cc(OC)ccc2OC)cc1
    -2.8 | nt
Nc1ccc(Sc2nnnn2-c2ccccc2)c(Cl)c1
    -0.3 | -0.71
Cc1ccccc1NC(=O)Nc1sc(=S)n(C)c1C
    4.5 | 0.49
Cc1cc(OCCCC(=O)NC2=NCCS2)ccc1Cl
    2.2 | nt

Only part of the results is shown, so the mix of outcomes need not match the whole.
